Screens (PubChem)
Bfl-1 A1 inh: caspase 3/7 activation in MEF A1-2A-BIM cells, primary screen, A1 inhibitor project, cell-based, luminescence, HTS | Caspase-Glo 3/7 luminescence, 3 h; percent of clofoctol response, vehicle zero | caspase activation, % (concentration not given with the values) | 330,000 compounds, 0.066% hits | AID 2462, 2010;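 active means over half of replicate activation scores above 10%, or exactly half above 10 with the replicate mean above 10; inconclusive means replicate mean below 10 yet half the replicates above 10; inactive means over half of replicates below 10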;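 further: wells of about 30 µL received 50 nL stock; many hits fall short of the cut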
Ecoli growth: E. coli growth inhibition, primary screen, OD600 | Escherichia coli growth, 23 h; hits give low values | OD600 absorbance (test concentration not listed) | 330,000 compounds, 0.21% hits;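 active means OD600 absorbance below the run mean of sample wells minus 3.6 SD, in any replicate, cut at about 0.56 in these data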;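 further: stock transfer was 300 nL into about 60 µL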
Vif A3G: inhibitors of Vif binding to APOBEC3G peptide, primary screen, biochemical, TR-FRET, GST-Vif 1-94, biotin-A3G peptide, dose response retest (AID 1117319). TR-FRET GST-Vif / biotin-A3G peptide binding; higher % means a stronger effect; test concentration not given here; strong numbers were not always called active. Virion infectivity factor (Human immunodeficiency virus type 1 group M subtype B (isolate …. inhibition, %, or IC50 in µM where a hit was titrated. 260,000 compounds, 0.57% hits;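 active means above the screen mean plus three standard deviations and confirmed in dose response; inconclusive means results disagree or hit not tested in dose response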;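 further: Vif residues 1-94 fused to GST binding biotinylated APOBEC3G peptide 110-148; 0% = full assay without inhibitor and 100% = GST in place of GST-Vif; retest series ran down from 100 µM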
B2AR ag: beta2AR agonists driving receptor internalization, primary screen, cell-based, FAP fluorogen, flow cytometry; 340,000 compounds, 0.43% hits; AID 504454, 2011; Beta-2 adrenergic receptor (Homo sapiens), P07550; response, % (no concentration beside the values); Am2.2-beta2AR cells; reference of the scale not given here;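 active means response above a set limit, near 3 SD of response in nonfluorescent compounds, cut at about 42% in these data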;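 further: stock transfer was 100 nL into about 11 µL; a reference agonist was the positive control; negative values mostly stem from fluorescent compounds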
HNF4A DNA FP: change in binding of human HNF4A to DNA, primary screen, biochemical, fluorescence polarization, FITC-DNA | activity change, % at 10 µM | 360,000 compounds, 0.3% hits | 1 h | Hepatocyte nuclear factor 4-alpha (Homo sapiens), P41235 | AID 1224865, 2016; in the data active means activity change above about 30%, passing the limit was not always enough;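 further: controls were the assay level and a saturating level of protein; the project sought stronger binding though the title names inhibitors; some compounds called inactive have numbers as strong as hits; positive values seem to mean higher polarization but the record does not say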
LANA-H2A inh: blockers of LANA interaction with H2A/H2B – biochemical, FP readout, HTS, primary screen; Protein LANA1 (Human herpesvirus 8 type P (isolate GK18)), Q9QR71; cell-free LANA-H2A/H2B peptide, fluorescence polarization; inhibition, % (concentration not given with the values); 320,000 compounds, 0.6% hits; AID 2629, 2010; in the data active means inhibition mostly above about 10%, no sharp cut-off; inactive means mostly below about 6.7%;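 further: stock transfer was 7.5 nL into about 10 µL; 0% = median of vehicle wells and 100% = median of positive control wells; one replicate is shown; the record names a cut of 25% in any replicate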
Target sequence (Q9QR71 whole entry, looked up): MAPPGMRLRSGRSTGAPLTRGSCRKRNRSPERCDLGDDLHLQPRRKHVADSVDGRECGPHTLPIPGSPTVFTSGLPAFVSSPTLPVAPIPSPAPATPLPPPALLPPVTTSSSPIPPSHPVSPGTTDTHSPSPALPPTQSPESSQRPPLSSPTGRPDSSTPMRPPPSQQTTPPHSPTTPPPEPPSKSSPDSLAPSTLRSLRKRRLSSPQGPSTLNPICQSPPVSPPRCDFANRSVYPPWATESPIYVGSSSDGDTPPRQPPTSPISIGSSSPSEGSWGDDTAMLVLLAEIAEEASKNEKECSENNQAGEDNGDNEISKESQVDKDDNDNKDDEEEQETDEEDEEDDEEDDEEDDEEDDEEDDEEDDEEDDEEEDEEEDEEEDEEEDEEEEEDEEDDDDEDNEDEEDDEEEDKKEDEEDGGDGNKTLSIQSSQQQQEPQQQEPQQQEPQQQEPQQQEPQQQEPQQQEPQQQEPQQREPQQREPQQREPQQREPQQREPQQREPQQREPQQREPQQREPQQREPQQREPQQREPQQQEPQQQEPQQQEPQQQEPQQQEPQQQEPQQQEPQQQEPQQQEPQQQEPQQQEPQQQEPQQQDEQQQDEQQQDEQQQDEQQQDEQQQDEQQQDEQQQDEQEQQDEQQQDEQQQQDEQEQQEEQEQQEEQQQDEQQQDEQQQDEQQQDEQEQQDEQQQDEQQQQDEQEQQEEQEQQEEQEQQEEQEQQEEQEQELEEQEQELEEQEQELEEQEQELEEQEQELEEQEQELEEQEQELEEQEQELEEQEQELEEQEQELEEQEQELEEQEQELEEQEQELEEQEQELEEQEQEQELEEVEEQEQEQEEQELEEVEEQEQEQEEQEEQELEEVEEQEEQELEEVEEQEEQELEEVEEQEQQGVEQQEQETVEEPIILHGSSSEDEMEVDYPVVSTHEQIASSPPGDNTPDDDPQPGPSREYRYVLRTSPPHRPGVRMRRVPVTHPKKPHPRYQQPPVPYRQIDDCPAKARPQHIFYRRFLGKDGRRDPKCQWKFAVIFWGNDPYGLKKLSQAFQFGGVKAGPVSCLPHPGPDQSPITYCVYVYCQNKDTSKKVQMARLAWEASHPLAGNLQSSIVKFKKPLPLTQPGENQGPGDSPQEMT
UCH37 inh: inhibitors of human UCH37 deubiquitinase, primary screen, biochemical, Ub-AMC cleavage, fluorescence | purified proteasome/UCH37 | inhibition, % (no concentration beside the values) | AID 588478, 2011 | Ubiquitin carboxyl-terminal hydrolase isozyme L5 (Homo sapiens), Q9Y5K5 | 330,000 compounds, 0.33% hits;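 active means mean of two replicates above 20%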;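 further: 0% = compound-free wells with enzyme and 100% = wells lacking proteasome; stock transfer was 100 nL into about 20 µL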
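Signal – fluorescence, ex 355 nm, em 460 nm · System – Proteasome-bound UCH37 · Input – 0.15 nM proteasome as dispensed · Timing – 30 min preincubation with enzyme, 25 min cleavage at room temperature · Read-out basis – percent inhibition of cleavage signal versus uninhibited and no-proteasome wells · Medium – Tris-HCl pH 7.4 with ATP-MgCl2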
An asterisk follows results filed as active; ? = inconclusive; . = not tested or not shown.

The first four compounds (preview)
SMILES	Bfl-1 A1 inh	Ecoli growth	Vif A3G	B2AR ag	HNF4A DNA FP	LANA-H2A inh	UCH37 inh
CCOC(=O)C(=CNc1cccnc1Oc1ccc(C)c2c1CCC2)C(=O)OCC	-1.3	0.67	-6%	3	2.7	2.6	2.7
CC(=O)c1ccc2c(c1)C1C=CCC1C(c1cc3c(cc1Br)OCO3)N2 (stereo not drawn)	-0.1	.	.	9	-6.7	-5.6	-0.3
CCN(CC)S(=O)(=O)c1cccc(C(=O)NNC(=O)C2=NN(c3ccccc3)C(=O)CC2)c1	2.7	0.73	-4%	1	0.2	-2.8	4.1
CCN(CC)S(=O)(=O)c1ccc(-c2nnc(SCC(=O)N3c4ccccc4CC3C)n2CC)cc1 (stereo not drawn)	1.5	0.72	.	12	0.2	4.2	2.0

Results, previewed entries included:
SMILES	Bfl-1 A1 inh	Ecoli growth	Vif A3G	B2AR ag	HNF4A DNA FP	LANA-H2A inh	UCH37 inh
CCOC(=O)C(=CNc1cccnc1Oc1ccc(C)c2c1CCC2)C(=O)OCC	-1.3	0.67	-6%	3	2.7	2.6	2.7
CC(=O)c1ccc2c(c1)C1C=CCC1C(c1cc3c(cc1Br)OCO3)N2 (stereo not drawn)	-0.1	.	.	9	-6.7	-5.6	-0.3
CCN(CC)S(=O)(=O)c1cccc(C(=O)NNC(=O)C2=NN(c3ccccc3)C(=O)CC2)c1	2.7	0.73	-4%	1	0.2	-2.8	4.1
CCN(CC)S(=O)(=O)c1ccc(-c2nnc(SCC(=O)N3c4ccccc4CC3C)n2CC)cc1 (stereo not drawn)	1.5	0.72	.	12	0.2	4.2	2.0
CC(C)Cc1nnc(NC(=O)CCNC(=O)c2ccccc2Cl)s1	.	0.66	6%	4	-5.8	.	1.2
COc1ccc(NC(=O)Cc2nnc(N)s2)cc1	-1.2	0.71	?	5	3.6	-3.6	5.5
CCc1nnc(NC(=O)CC23CC4CC(CC(Br)(C4)C2)C3)s1	0.6	0.68	.	-8	0.4	-5.6	1.3
Cn1nc(C(=O)N2CCc3ccccc3C2)c2ccccc2c1=O	-0.4	0.8	3%	-12	-2.8	-6.5	0.9
CS(=O)(=O)N(CC(=O)NCCSCc1ccccc1)c1ccccc1Cl	-0.3	0.69	-3%	0	2.9	2.5	2.3
NC(=O)CC(NC(=O)Cc1ccc(Cl)cc1)c1ccc(NCCN2CCOCC2)c([N+](=O)[O-])c1 (stereo not drawn)	-0.1	0.71	.	2	-0.8	-0.3	6.5
Cc1nc2nc(C)c(NS(=O)(=O)c3ccc(Cl)cc3)c(=O)n2[nH]1	-0.2	0.68	.	3	-4.4	9.6	-1.5
N#Cc1c(N)nc2c(c1-c1ccc(F)cc1)c(=O)nc1sccn12	1.5	0.7	-1%	-4	-1.8	-2.2	1.5
CSc1ccc(S(=O)(=O)NCC(=O)OCC(=O)NCCc2ccccc2)cc1[N+](=O)[O-]	0.4	0.57	11%	-7	2.6	2.1	3.3
COc1ccc(C(=O)NNC(=O)Cn2nnc(-c3ccc(OC)c(OC)c3)n2)cc1	-0.4	0.7	6%	12	3.0	2.3	3.0
Cc1cccc(C2=NN(c3ccc(Br)cc3)[C@@H](C(=O)N3CCOC3=O)[C@@H]2C)c1	.	0.69	-4%	-5	2.4	.	-173
Cc1ccc(Nc2ccc([N+](=O)[O-])ccc2=O)cc1	0.2	0.69	.	15	3.8	0.9	4.4
Cc1nn(-c2ccccc2)c(=S)c2ccccc12	0.0	0.7	5%	-4	-3.2	-0.8	5.5
Cc1cc(NC(=O)c2cc(-c3ccc4c(c3)OCO4)on2)n(-c2ccccc2)n1	-1.1	0.71	0%	26	-0.6	0.9	-5.6
CCC(C(=O)NCc1ccco1)n1nc(C)n2c(cc3occc32)c1=O (stereo not drawn)	1.0	0.64	8%	0	0.1	-4.0	-0.5
Nc1ccc[n+](CC(=O)c2ccccc2)c1	1.2	0.72	.	-2	-1.7	-0.1	2.7
COCCn1c(CCC(=O)O)ccc1-c1cccs1	0.6	0.71	-8%	7	2.6	-0.1	-26
Fc1ccc(NC(=S)NC23CN4CN(CN(C4)C2)C3)cc1	0.2	0.67	2%	1	1.1	1.3	5.2
CCNC(=O)NC(=O)CSc1nnc(-c2c[nH]c3ccccc23)o1	-0.3	0.56	.	-2	-0.1	3.2	2.6
COc1ccc(/C=N/OC/C(O)=C(\C#N)c2nc3ccccc3[nH]2)cc1	-0.3	.	1%	-2	2.6	2.8	.
Cc1ccc(C)c(C(=O)Nc2ccncc2)c1	0.2	0.65	.	7	-0.4	15	0.4
COc1cc(OC)c(C(=O)O/N=C(\N)c2ccc(C)cc2)cc1OC	-1.1	0.68	-4%	1	0.1	0.6	2.3
Cc1ccc(CNC(=O)CNC(=O)c2ccc(Br)o2)cc1	1.5	0.74	1%	6	-2.2	-2.6	0.9
CC(=O)c1ccccc1OCCCN1CCCCC1	0.5	0.74	14%	7	1.5	-4.2	5.7
CCc1ccc(OCC(=O)NC(NC(=S)Nc2ccc(Cl)cc2)C(Cl)(Cl)Cl)cc1 (stereo not drawn)	-0.6	0.68	10%	3	1.6	-1.4	6.0
COc1ccnc(N=CNOCc2ccc(Cl)cc2)c1C#N	-0.5	0.7	-2%	-3	-18	1.0	4.8
Cc1cc2ccccc2n1CCNC(=O)c1ccc(Br)o1	-0.2	0.69	32%	-9	-7.9	2.5	1.3
O=C(CSc1ncccc1C(=O)O)c1ccccc1F	-1.2	0.66	-16%	2	6.5	1.7	5.3
O=c1oc2ccccc2nc1/C=C(\O)c1ccc(Br)cc1	0.4	0.71	?	-1	19	16	4.9
Cc1ccc(NC(=O)OCC(F)(F)C(F)F)cc1NC(=O)OCC(F)(F)C(F)F	-0.2	0.68	2%	2	-0.8	1.9	2.7
Cc1cc(=O)oc2cc(OCC(=O)NCc3cccnc3)ccc12	0.1	0.65	76%	7	0.8	-0.2	-22
COC(=O)[C@H](CCSC)NC(=O)[C@@H](Cc1cnc[nH]1)NC(=O)OCc1ccccc1	0.4	0.64	-13%	5	-0.2	2.1	-1.1
CCOc1ccc2nc(NC(NC(=O)CC)(C(=O)OC)C(F)(F)F)sc2c1 (stereo not drawn)	-0.9	0.66	?	-3	0.2	-2.0	5.1
C=CCOc1cccc(CNn2nnnc2N)c1	0.2	0.72	-7%	-3	-1.1	0.2	3.6
CCOC(=O)C1CCN(CCC(=O)Nc2cccc(C)c2)CC1	-0.4	0.71	3%	2	4.6	1.3	4.6
O=C(COc1coc(CN2CCN(c3ccccc3)CC2)cc1=O)Nc1cccc(F)c1	-0.2	0.7	.	-4	-0.9	0.6	2.5
O=C(NCCCN1CCOCC1)c1ccc(CS(=O)(=O)Cc2ccccc2Cl)o1	0.3	0.69	-6%	0	0.0	0.0	-0.6
O=C(CSc1ncnc2sc(-c3ccccc3)cc12)NC1CCS(=O)(=O)C1 (stereo not drawn)	-1.6	0.71	.	-6	-0.7	0.8	-2.5
CCC1CC(C(=O)Nc2ccccc2)C(=O)O1 (stereo not drawn)	-0.2	0.7	.	4	-1.8	-2.9	2.6
Cc1ccc(S(=O)(=O)NCCC(=O)NNC(=O)c2ccccc2Cl)cc1C	.	0.67	4%	0	0.1	.	-1.2
O=C(Cn1cnc2sc3c(c2c1=O)CCCC3)NCC(=O)Nc1ccc(F)cc1F	1.6	0.63	.	-14	1.8	-8.2	2.8
O=Cc1cnc2ccccc2c1-c1ccccc1	0.0	0.68	.	3	-1.6	0.0	2.2
C(=Nc1ccc(Nc2ccccc2)cc1)c1ccc2ccccc2c1	-1.2	0.73	?	1	0.0	5.2	1.9
O=C(c1ccccc1NS(=O)(=O)c1ccccc1[N+](=O)[O-])N1CCCC1	-0.5	0.68	3%	-1	2.3	2.7	2.9
COc1ccccc1C(=O)N1CCN=C1c1ccccc1	2.0	0.68	4%	-7	7.0	2.6	3.8
C=CCOc1ccc2c(c1)C(=NO)c1cc(OCC=C)ccc1-2	0.0	0.7	44%	17	3.0	1.3	3.2
CCOC(=O)CC1C(=O)NCCN1Cc1cccc(C(F)(F)F)c1 (stereo not drawn)	-1.4	0.72	2%	10	2.4	0.7	-0.5
CCNC(=O)COC(=O)c1cc(=O)[nH]c2ccccc12	-0.6	0.67	0%	-3	-1.9	-0.6	-56
CC(=O)N1CCN(S(=O)(=O)c2cccc(C(=O)NNC(=O)COc3ccc(Cl)cc3C)c2)CC1	-0.9	0.62	-1%	7	-7.2	2.1	5.0
O=C(N/N=C/c1cc(Br)ccc1O)C(c1ccncc1)N1CCOCC1 (stereo not drawn)	-0.2	.	-25%	-1	1.3	0.2	.
Nc1nc2ccc(Br)cc2o1	.	0.66	-8%	2	2.1	.	0.1
O=C(NNC(=S)Nc1ccc(Br)cc1)c1cccnc1	-0.1	0.68	.	5	-3.2	-0.1	7.7
Cc1c(C(=O)OCC(=O)Nc2ccc(C(N)=O)cc2)cccc1[N+](=O)[O-]	1.4	0.66	-4%	2	1.9	-4.1	0.9
CCOc1cc(/C=N/NC(=O)c2ccccn2)ccc1OC(=O)c1cccs1	-2.4	.	.	7	3.1	-3.6	.
CC12CCCCN1CCCc1c2[nH]c2ccccc12 (stereo not drawn)	0.6	0.65	19%	6	-2.5	-9.2	4.0
O=C(Nc1ccc(N2CCN(C(=O)c3ccccc3)CC2)c(Cl)c1)c1ncn[nH]1	0.4	0.67	.	1	1.3	1.1	3.3

(more compounds)
SMILES	Bfl-1 A1 inh	Ecoli growth	Vif A3G	B2AR ag	HNF4A DNA FP	LANA-H2A inh	UCH37 inh
CCc1ccc(OCCn2ccnc2)cc1	0.4	0.65	.	-6	0.1	8.3	-1.3
COC1OCC(O)C(OC(=O)c2ccccc2)C1OC(=O)c1ccccc1 (stereo not drawn)	.	0.71	2%	3	-0.1	.	4.5
COc1ccc(C(=O)OCC(=O)NC(C)CCc2ccccc2)cc1OC (stereo not drawn)	0.0	0.68	-3%	-6	-3.5	3.6	3.3
CC(=O)Nc1cccc(Oc2ncnc3scc(-c4ccccc4)c23)c1	0.6	0.69	17µM*	-6	4.0	7.3	2.0
COC(=O)c1ccccc1NC(=O)N1CCN(c2ccc(OC)cc2)CC1	-1.1	0.72	9%	7	-2.7	2.5	1.6
C/C=C(\C)C(=O)NCCN1C2=NC[C@H](Cc3ccc(O)cc3)N2C[C@H]1Cc1ccc(O)cc1	-0.3	.	.	-6	1.3	0.4	0.9
C=CCc1c(C)[nH]c2ccc(C)cc2c1=O	0.7	0.67	2%	1	-0.5	2.1	0.5
COc1ccc(CCN(Cc2cccs2)S(=O)(=O)c2ccc(-n3cnnn3)cc2)cc1OC	1.2	0.73	-10%	-3	-3.5	-5.7	0.3
CCCC(=O)Nc1ccc(C(=O)NNC(=O)c2cccs2)cc1	-0.5	0.7	-1%	-6	-3.9	1.3	3.7
CCCCOC(=O)c1ccc(NC(=O)COC(=O)C2CSC3(C)CCC(=O)N23)cc1 (stereo not drawn)	-0.6	0.69	7%	1	-2.2	-4.4	2.9
